High-throughput results deposited in PubChem by several laboratories.
B2AR ag – human beta-2 adrenergic receptor agonism by FAP | P07550 | Am2.2-beta2AR cells, FAP receptor internalization, flow cytometry; reference of the scale not given here | 340,000 compounds, 0.43% hits | response, % (concentration not given with the values) | AID 504454;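 active = response above a set limit, near 3 SD of response in nonfluorescent compounds, cut at about 42% in these data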;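 note: stock transfer was 100 nL into about 11 µL; a reference agonist was the positive control; negative values mostly stem from fluorescent compounds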
ALR inh – human ALR oxidase inhibition via reduced H2O2 | P55789 | purified ALR, DTT oxidation, H2O2 HRP-luminol luminescence | inhibition, % (concentration not given with the values) | 290,000 compounds, 3.8% hits | AID 485317;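 active = mean and each replicate at 75% or more; inconclusive = only one of the two met; inactive = neither met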;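 note: stock transfer was 7.5 nL into about 7.5 µL; 0% = neutral wells and 100% = wells with inactivated enzyme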
Target sequence (P55789 whole entry, looked up): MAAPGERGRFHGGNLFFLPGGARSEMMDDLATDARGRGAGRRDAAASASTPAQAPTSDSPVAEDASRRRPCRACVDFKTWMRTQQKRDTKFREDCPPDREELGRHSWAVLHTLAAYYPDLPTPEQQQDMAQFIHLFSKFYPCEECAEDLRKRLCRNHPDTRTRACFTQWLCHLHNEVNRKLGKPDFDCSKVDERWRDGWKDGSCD
rRNA inh HTS – inhibitors of bacterial rRNA selective over humanized ribosomes; E. coli WT GFP vs humanized-ribosome RFP mutants, fluorescence, 24 h; hits give low values; DMSO median 0, no signal -100; GFP signal change (wild-type ribosome), % (concentration not given with the values); 350,000 compounds, 1.6% hits; AID 720706;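 active = significant combined selectivity score with lowered wild-type GFP, culture density cut under 30%, mutant RFP and density less affected; inactive = any of these conditions unmet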; note: one replicate is shown; some compounds called inactive have numbers as strong as hits
HNF4A DNA FP – change in binding of human HNF4 alpha to DNA; P41235; HNF4a-FITC DNA binding, fluorescence polarization, 1 h; activity change, % at 10 µM; 360,000 compounds, 0.3% hits; AID 1224865; in the data active = activity change above about 30%, passing the limit was not always enough;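 note: controls were the assay level and a saturating level of protein; the project sought stronger binding though the title names inhibitors; some compounds called inactive have numbers as strong as hits; positive values seem to mean higher polarization but the record does not say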
Target sequence (P41235 whole entry, looked up): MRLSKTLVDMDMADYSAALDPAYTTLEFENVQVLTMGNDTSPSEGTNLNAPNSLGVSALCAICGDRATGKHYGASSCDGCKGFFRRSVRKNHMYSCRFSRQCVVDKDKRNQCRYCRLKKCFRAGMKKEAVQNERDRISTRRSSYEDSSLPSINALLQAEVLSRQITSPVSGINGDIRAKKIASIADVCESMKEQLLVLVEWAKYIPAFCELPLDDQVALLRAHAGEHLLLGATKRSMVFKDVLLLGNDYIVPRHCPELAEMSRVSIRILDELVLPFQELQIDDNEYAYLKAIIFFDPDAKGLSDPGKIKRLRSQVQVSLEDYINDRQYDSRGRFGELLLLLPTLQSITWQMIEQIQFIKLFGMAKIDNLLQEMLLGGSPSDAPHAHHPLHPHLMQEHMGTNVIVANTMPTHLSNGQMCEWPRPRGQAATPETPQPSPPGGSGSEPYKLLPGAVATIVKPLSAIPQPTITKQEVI
FGF22 binding – shifts melting point of recombinant human FGF22; 340,000 compounds, 1.5% hits; Q9HCT0; calls only at 9.99 µM; AID 651658; recombinant FGF22 thermal shift, SYPRO orange fluorescence; percent of sucrose octasulfate shift, DMSO zero;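 active = melting point raised past a set limit in the mean and every replicate; inconclusive = no clear call; three in four hits are not shown here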
UCH37 DUB inh – inhibitors of human deubiquitinating enzyme UCH37; Q9Y5K5; purified proteasome/UCH37, Ub-AMC cleavage fluorescence; inhibition, % (test concentration not listed); 330,000 compounds, 0.33% hits; AID 588478;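 active = mean of two replicates above 20%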;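 note: 0% = compound-free wells with enzyme and 100% = wells lacking proteasome; stock transfer was 100 nL into about 20 µL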
Target sequence (Q9Y5K5 whole entry, looked up): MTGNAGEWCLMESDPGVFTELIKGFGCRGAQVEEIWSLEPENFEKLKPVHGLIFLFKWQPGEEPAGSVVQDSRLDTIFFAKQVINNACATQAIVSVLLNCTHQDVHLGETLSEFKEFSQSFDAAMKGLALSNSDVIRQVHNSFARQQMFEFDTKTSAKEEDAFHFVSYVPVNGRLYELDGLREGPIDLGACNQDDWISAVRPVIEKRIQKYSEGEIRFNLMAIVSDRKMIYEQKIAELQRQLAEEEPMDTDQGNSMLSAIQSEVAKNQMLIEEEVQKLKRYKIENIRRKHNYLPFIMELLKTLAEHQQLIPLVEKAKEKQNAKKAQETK
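Signal – fluorescence, ex 355 nm, em 460 nm · System – Proteasome-bound UCH37 · Input – 0.15 nM proteasome as dispensed · Timing – 30 min preincubation with enzyme, 25 min cleavage at room temperature · Read-out basis – percent inhibition of cleavage signal versus uninhibited and no-proteasome wells · Medium – Tris-HCl pH 7.4 with ATP-MgCl2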
Ecoli growth – blocks Escherichia coli growth | OD600, 23 h; hits give low values | OD600 absorbance (no concentration beside the values) | 330,000 compounds, 0.21% hits;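 active = OD600 absorbance below the run mean of sample wells minus 3.6 SD, in any replicate, cut at about 0.56 in these data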;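 note: stock transfer was 300 nL into about 60 µL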
rRNA inh HTS OD600 – second read-out of rRNA inh HTS, no call of its own (marks repeat the call); OD600 change, %; measured here: OD600 growth;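 optical density of the mix in the first replicate; 0 = DMSO median and -100 = no signal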
rRNA inh HTS RFP – also measured in rRNA inh HTS; calls as there; RFP signal change, %; measured here: RFP humanized mutant strains;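 first replicate; 0 = DMSO median and -100 = no signal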
Starred values were filed as active, the others as inactive; i = inactive; u = inconclusive; x = not tested or not shown; & = joins results of further samples. Some of the compounds tested, so the mix of outcomes need not match the whole.

B2AR ag,ALR inh,rRNA inh HTS,rRNA inh HTS OD600,rRNA inh HTS RFP,HNF4A DNA FP,FGF22 binding,UCH37 DUB inh,Ecoli growth,mol
1,x,-17,-19,-5.5,1.3,i,1.8,0.69,CCN(CC(=O)Nc1ccc(OC)cc1)C(=O)c1ccc(OCc2c(C)noc2C)cc1
1,-1,8,9,7.8,1.5,i,-1.5,0.67,COc1ccc(NC(=O)CN(C)C(=O)c2ccccc2OCC(=O)Nc2cccc(C(F)(F)F)c2)cc1
9,x,6,4,5.1,2.3,i,1.5,0.64,Cc1nc(N)ncc1-c1ccc2c(c1)OCO2
9,-6,12,5,4.3,-6.1,i,-259,0.7,CNc1nc2c(-c3ccc(Cl)cc3)nnn2c2ccccc12
4,-39,x,x,x,0.6,x,1.6,0.72,CCOc1ccc(NC(N)=O)cc1OCC
-1,-8,x,x,x,3.8,x,1.2,0.68,COc1ccc(S(=O)(=O)N2CCSC2c2ccc(OC)c(OC)c2)cc1 (stereo unspecified)
0,-22,x,x,x,-1.5,x,0.9,0.69,CCN1CCN(C(=O)CN(c2ccc(C)cc2)S(C)(=O)=O)CC1
-7,x,x,x,x,-2.7,x,4.0,0.76,CN(c1ccccc1)S(=O)(=O)c1ccc(NC(=S)NC(=O)c2ccccc2)cc1
21,1,6,11,-1.9,0.1,i,2.0,x,C=CCN([C@@H](CC(C)C)C(=O)OC)S(=O)(=O)N(CC=C)[C@@H](CC(C)C)C(=O)OC
7,36,-2,-3,0.1,5.6,i,5.6,0.67,COc1ccccc1N1C(=O)CC(N(O)c2ccccc2)C1=O (stereo unspecified)
7,x,x,x,x,3.7,x,x,0.73,CSc1nc2ccccc2cc1/C=C(\C#N)c1cccc(C)c1
11,7,x,x,x,-2.2,x,0.4,0.62,CCOC(=O)c1ccc(CNCc2ccc(Br)cc2)cc1
8,-17,-4,-3,3.8,-4.6,x,-0.3,0.68,COc1ccc(NC(=O)C2CCN(S(=O)(=O)c3ccc4[nH]c(=O)oc4c3)CC2)c(OC)c1
13,23,x,x,x,-0.4,x,5.7,0.73,Cc1nc([N+](=O)[O-])c(Br)n1CC(=O)c1ccccc1
22,-4,17,8,-4.0,0.6,i,0.7,0.71,Cc1ccc(Nc2nnc(SCC(=O)NC3CC3)s2)cc1
20,5,x,x,x,0.2,x,-2.7,0.67,Cc1ccc(CNC(=O)c2ccc(C#CC(C)(C)O)s2)cc1
-1,x,-1,1,-1.4,-3.4,i,2.1,0.66,COc1ccc(NS(=O)(=O)c2cccc(C(=O)O)c2)cc1S(=O)(=O)N1CCCCC1
4,x,3,1,0.9,1.7,i,1.3,0.69,CCN1CCN(S(=O)(=O)c2ccc(Cl)c(C(=O)Nc3ccccc3N3CCCC3)c2)CC1
6,2,x,x,x,2.1,x,-1.0,0.66,Cc1ccc(OCCn2cc(C#N)c3ccccc32)cc1
-3,x,6,4,-0.1,-1.4,i,-22,0.65,CCN(c1ccccc1)S(=O)(=O)c1ccc(OC)c(NC(=O)c2cc(F)c(F)c(F)c2F)c1
x,x,5,4,-6.0,-2.9,i,x,x,CC1(c2nnnn2Cc2ccccc2)CCC(=O)N1C1CC1 (stereo unspecified)
2,1,4,8,-1.4,-0.4,i,1.7,0.71,O=C(c1ccc(F)cc1)N(Cc1cccs1)C1CCS(=O)(=O)C1 (stereo unspecified)
1,-6,-22,-19,-2.3,4.4,i,1.2,0.72,COc1ccccc1NC(=O)NNC(=O)C(C)Oc1ccc2ccccc2c1 (stereo unspecified)
4,-2,7,13,0.0,-4.6,x,x,x,CN(C)C(C)(C)C#CC(O)(c1ccccc1)c1ccccc1
61*,2,-3,0,-1.7,-0.2,i,-79,0.69,CCc1cc2c(COC(=O)c3cccc(S(C)(=O)=O)c3)cc(=O)oc2cc1O
0,0,x,x,x,-0.9,x,1.2,0.71,O=P(O)(O)c1ccccc1OCCOCCOc1ccccc1P(=O)(O)O
8,x,1,-10,1.8,-1.1,i,-2.8,0.68,Fc1ccccc1C1c2[nH]c3ccccc3c2CCN1Cc1ccoc1 (stereo unspecified)
14,-8,x,x,x,3.5,x,4.9,0.74,O=C(NC1CCCc2ccccc21)C1CCN(S(=O)(=O)N2CCCCCC2)CC1 (stereo unspecified)
-1,6,3,6,-2.7,2.0,i,0.9,0.7,CC(=O)Nc1cccc(C(=O)OCC(=O)NC(=O)Cc2ccccc2)c1
3,x,x,x,x,-3.7,x,4.0,0.69,CC1=CC(C)(C)N(C(=O)CSc2ncn[nH]2)c2ccc(C)cc21
2,0,22,10,3.7,3.8,i,2.9,0.71,CC(C)CC(O)(c1ccccc1)C(CN1CCOCC1)c1ccccc1 (stereo unspecified)
-5,u,x,x,x,-2.6,i,3.9,0.73,C=CCc1ccc(O)c(-c2cc(CC=C)ccc2O)c1
1,x,10,3,1.6,-2.6,i,0.4,0.68,COc1ccc(C)cc1N(C(=O)c1ccc(C#N)cc1)C1=NC(C)(C)CS1
-8,-18,30,15,1.1,-2.6,i,2.7,0.68,O=C1NCCN1c1ccc(CN2CCN(C3CCCCC3)C(CCO)C2)cc1 (stereo unspecified)
1,-22,x,x,x,6.7,x,6.2,0.66,Cc1ccc([N+](=O)[O-])cc1NC(=O)C(Sc1ccccc1)c1ccccc1 (stereo unspecified)
3,3,-2,-1,9.7,0.6,i,8.0,0.71,CC1(C)CC(N2CCCC2)=CC(=[N+]2CCCCC2)C1
-1,-12,x,x,x,-1.4,x,5.1,0.65,CCCNC(=S)N1CCC(NC(=O)C2CCCCC2)CC1
-15,-6,5,4,-8.4,-2.4,i,3.6,0.68,COc1cccc(-c2noc(CCCC(=O)Nc3ccc(C(N)=O)cc3)n2)c1
1,-5,5,5,-5.0,1.3,i,2.8,0.68,CCCCN(C(=O)c1ccc(S(=O)(=O)N(CC)CC)cc1)c1c(N)n(CCC)c(=O)[nH]c1=O
9,-3,2,1,-3.8,0.8,i,5.8,0.69,COc1ccc(OC)c(S(=O)(=O)Nc2cccc(-c3ccc4nncn4n3)c2)c1
6,-4,x,x,x,2.6,x,x,x,O=C1c2ccccc2C(=O)c2c1cccc2N1CCOCC1
1,0,4,6,1.5,-19,x,-2.5,0.67,CC1CC(C)(C)NC(=S)N1CCCC(=O)Nc1ccc(F)c(F)c1 (stereo unspecified)
-6,-2,-18,-13,3.2,2.1,i,5.3,0.69,Cc1ccc(NC(=O)CN(C)C(=O)COC(=O)CNS(=O)(=O)c2ccc(Br)cc2Cl)cc1
-13,5,-19*,-9.0*,1.1*,-0.5,i,0.0,0.64,CC(C)(C)CC(=O)Nc1ccccc1N1CCN(c2ccccc2)CC1
4,-3,1,8,-0.4,-0.4,i,2.0,0.62,CCOC(=O)Cc1csc(NC(=O)Cn2c(=O)oc3ccccc32)n1
-1&3,-10,-2&18,0&35,-0.9&2.0,-2.1&-3.1,i,x,x,O=C(Cc1cc(=O)[nH][nH]1)N/N=C/c1cccc(Cl)c1Cl
-10,-1,x,x,x,-1.2,x,-6.0,0.68,O=C(Nc1ccc(NC(=O)c2sc3ccccc3c2Cl)cc1Cl)c1ccco1
-3,-2,5,2,11,3.2,i,-31,0.7,Cc1ccccc1NC(=O)Cc1nc(COC(=O)c2cccc(C)c2O)cs1
-14,2,-17,-39,-4.5,-0.5,i,3.3,0.67,O=C(CSc1nc2ccccc2c2c1CCCC2)N1CCOCC1
-6,2,9,3,0.2,-0.7,i,-43,0.67,O=C(/C=C/c1ccc2c(c1)OCO2)NCc1ccncc1

Other results follow:
B2AR ag,ALR inh,rRNA inh HTS,rRNA inh HTS OD600,rRNA inh HTS RFP,HNF4A DNA FP,FGF22 binding,UCH37 DUB inh,Ecoli growth,mol
10,-10,x,x,x,-2.9,x,3.1,0.72,O=C(CN1C(=O)c2ccccc2C1=O)N1CCCCC1
1,0,x,x,x,1.7,x,2.1,0.65,Cc1ccc(-n2c(C)cc(C(=O)COc3c(CO)cc(F)cc3CO)c2C)cc1C
-3,0,1,0,-2.6,-1.9,i,0.0,0.71,O=C(CCNC(=O)c1ccc(Br)cc1)NCCCSc1ccccc1
1,6,5,5,3.3,0.6,i,-0.5,0.7,COc1ccc(C(=O)NCc2nnc(SCC(=O)N3CCCc4ccccc43)o2)cc1OC
3,x,8,4,0.3,-2.9,i,4.7,0.72,Cc1ccc(OC(=O)c2sc3ncn(C)c(=O)c3c2C)cc1
0,11,2,1,-0.3,1.7,i,x,x,CCOc1ccc2ccccc2c1/C=N/NC(=O)CNC(=O)c1ccccc1O
2,-3,0,2,-2.7,-1.2,i,x,x,Cc1ccc(OCC(=O)N/N=C/c2ccco2)cc1
2,4,-2,3,-1.5,-5.5,i,0.4,0.64,CCCCc1nc2cc(C(=O)NC3CCOC(C)(C)C3)ccc2o1 (stereo unspecified)
2,97*,-4,-8,-1.4,-12,i,4.5,0.68,Cc1nnc(NC(=O)CSc2ccc(-c3ccco3)nn2)s1
0,31,3,1,0.6,5.0,i,1.1,0.66,COc1ccccc1N1CCN(C(=O)c2ccc3c(c2)CCN3S(C)(=O)=O)CC1
11,-2,3,-3,-2.9,-2.4,i,-83,0.68,Cc1ccc(C(=O)N/C(=C/c2ccc(-c3ccc(Br)cc3)o2)C(=O)NC2CCS(=O)(=O)C2)cc1 (stereo unspecified)
-4,-4,4&13,7&1,2.2&-2.0,0.9,i,0.5,x,C[C@H](CO)N1C[C@H](C)[C@@H](CN(C)Cc2ccc(-c3ccccc3)cc2)Oc2c(NS(=O)(=O)c3ccc(F)cc3)cccc2C1=O
12,-12,x,x,x,5.8,x,1.3,0.66,COc1ccc(CN2CCCC2C(=O)Nc2ccc(OC)c(OC)c2)cc1OC (stereo unspecified)
-11,-5,1,0,-1.9,3.7,i,2.2,0.68,C=CCSc1nc2c(c(=O)[nH]c(=O)n2C)n1Cc1ccccc1
3,4,-17,-41,17,-0.7,i,0.2,0.67,CSCCC(NS(=O)(=O)c1cccc(C(F)(F)F)c1)C(=O)Nc1ccccc1N1CCCC1 (stereo unspecified)
4,-2,-7,-13,-0.4,2.0,i,7.9,0.65,O=C(Nc1ccc([N+](=O)[O-])cc1)Nc1cnccn1
-7,-4,0,8,-2.9,-2.0,i,6.2,0.71,N#Cc1cc([N+](=O)[O-])ccc1NC(=O)CSc1n[nH]c(=O)n1C1CC1
-2,-13,26,14,2.5,-0.1,i,x,x,CCN1CCN(C(=O)C(=O)c2cn(CC(=O)N(CC)CC)c3ccccc23)CC1
-6,3,1&10,6&12,2.4&-6.5,-7.1,i,-56,0.79,C[C@H](CO)N1C[C@H](C)[C@@H](CN(C)CC2CCCCC2)Oc2ccc(NC(=O)CCN3CCOCC3)cc2C1=O

Reprinted at random: five records from the list
B2AR ag,ALR inh,rRNA inh HTS,rRNA inh HTS OD600,rRNA inh HTS RFP,HNF4A DNA FP,FGF22 binding,UCH37 DUB inh,Ecoli growth,mol
13,23,x,x,x,-0.4,x,5.7,0.73,Cc1nc([N+](=O)[O-])c(Br)n1CC(=O)c1ccccc1
4,-2,7,13,0.0,-4.6,x,x,x,CN(C)C(C)(C)C#CC(O)(c1ccccc1)c1ccccc1
-1&3,-10,-2&18,0&35,-0.9&2.0,-2.1&-3.1,i,x,x,O=C(Cc1cc(=O)[nH][nH]1)N/N=C/c1cccc(Cl)c1Cl
-3,0,1,0,-2.6,-1.9,i,0.0,0.71,O=C(CCNC(=O)c1ccc(Br)cc1)NCCCSc1ccccc1
11,-2,3,-3,-2.9,-2.4,i,-83,0.68,Cc1ccc(C(=O)N/C(=C/c2ccc(-c3ccc(Br)cc3)o2)C(=O)NC2CCS(=O)(=O)C2)cc1 (stereo unspecified)
